# Bioassay records deposited in PubChem by Center for Chemical Genomics, University of Michigan.
# TAR Tat displ: HIV-1 TAR-Tat binding disruption; AID 1259389; z-score (test concentration not listed); HIV-1 TAR RNA, Tat peptide displacement FRET; stronger effect = higher value; 100,000 tested, 0.6% active;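 further: score is relative to mean and SD of negative controls; some compounds called inactive have numbers as strong as hits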
# CDC25B CDK2 inh: human CDC25B-CDK2/CyclinA binding inhibition. z-score (no concentration beside the values). 94,000 tested, 0.72% active. P30305+P24941. HTRF CDC25B-CDK2/CyclinA binding, anti-His/anti-Flag; stronger effect = higher value;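 further: score is relative to mean and SD of negative controls; strong numbers were not always called active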
# Active calls of the source: *; · = not tested or not shown.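 How the source made its calls: active means z-score from 3 up in half or more of its runs; inactive means the rest.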
SMILES,TAR Tat displ,CDC25B CDK2 inh
Clc1ccc(CNc2nc3ccccc3n2CCN2CCCCC2)cc1,1.8,-1.1
Cc1ccsc1C1CC(=O)NC2=C1C(=O)CC(C)(C)C2 (configuration not stated),-7.2,-0.73
COc1ccc(Cl)cc1NC(=O)N1CCN(S(=O)(=O)c2ccc3c(ccn3C)c2)CC1,-0.71,·
CCn1c(C(=O)N2CCC(C(=O)N3CCCCC3)CC2)cc2occc21,-1.6,-0.89
Cc1ccc(-c2cc(Nc3ccc(O)cc3)nc(C)n2)cc1,-0.14,0.63
COc1ccc(-c2noc(CSc3nc(N)cc(=O)[nH]3)n2)cc1,0.95,-2.4
CCCCSc1nc2ccccc2n1CC(=O)O,0.41,-0.76
NC(=O)C[n+]1ccn2c(NC3CCCCC3)c(-c3ccccc3O)nc2c1,-7.6,-0.46
Cc1cc(S(=O)(=O)Cc2cccc(F)c2)c(Cl)cc1Cl,·,-3
COCCCN=C1NS(=O)(=O)C(c2ccc(OC)cc2)=C1C,0.97,-1.7
COc1ccccc1C1Nc2ccccc2-c2nnc(SC)nc2O1 (configuration not stated),0.8,-0.54
CCS(=O)(=O)Nc1ccc2c(c1)N(S(C)(=O)=O)CCC2,0.2,·
CCN1CCN(c2nc(NCc3ccccc3)nc(N)c2[N+](=O)[O-])CC1,0.34,·
COCCn1c(N2CCN(c3ccc(OC)cc3)CC2)nc2c1c(=O)[nH]c(=O)n2C,·,0.92
CC(Sc1nc2c(c(=O)[nH]1)CCC2)C(=O)Nc1ccc(Cl)cc1 (configuration not stated),0.34,0.68
CC(=O)/C(=C\N(C)C)Sc1ccc(Cl)cc1,·,-2.1
CCOC(=O)c1cc(CC)sc1NC(=O)Cn1c(=O)oc2ccccc21,0.31,-1.7
COc1ccc2c(=O)c(-c3ccc(Br)cc3)coc2c1,·,-0.04
O=C(NC1(C(F)(F)F)C(=O)Nc2c1c(=O)[nH]c(=O)n2-c1ccc(Cl)cc1)c1cccs1 (configuration not stated),·,-1.2
O=C(Nc1ccccc1Br)N1CCN(c2nc3cc(F)ccc3n3cccc23)CC1,0.76,·
Cc1ccc(-c2csc3c2ncn2c(=O)n(CC(=O)Nc4c(C)cccc4C)nc32)cc1,0.05,·
Cc1ccc(-c2noc(C(C)NS(=O)(=O)c3ccc(Cl)cc3)n2)cc1 (configuration not stated),2.2,-0.63
O=c1c2nccnc2nc(SCc2ccccc2Cl)n1Cc1cccs1,0.19,·
COC(=O)c1sccc1OCc1nnc(-c2ccc(OC)cc2)o1,·,0
N#Cc1c(NC(=O)c2nn(-c3cccc(Cl)c3)ccc2=O)sc2c1CCCC2,0.73,-0.02
Cc1[nH]c(C)c(S(=O)(=O)Nc2ccc(Br)cc2F)c1C(=O)N1CCCC1,0.89,·
Cc1ccc(S(=O)(=O)Nc2ccc(C)cc2NS(=O)(=O)c2ccc(F)cc2)cc1,·,-0.14
CC1=C(C(=O)OCc2ccccc2)C(c2cccc(F)c2)C2=C(CCCC2=O)N1 (configuration not stated),0.88,-0.02
COc1ccc(Cl)cc1/C=C1\N=C(SC)SC1=O,0.06,-0.79
Cc1ccc(C(=O)COC(=O)C2CCC(N3C(=O)C4CCCCC4C3=O)CC2)cc1C (configuration not stated),0.13,-0.52
Cc1ccc(Nc2nc(N3CC(C)OC(C)C3)nc3c2cnn3C)cc1Cl (configuration not stated),1.7,·
COc1cc(C2C(N3C(=O)c4ccccc4C3=O)C(=O)N2c2ccc(C)c(C)c2)cc(OC)c1OC (configuration not stated),·,-0.24
COc1ccc(C(c2c[nH]c3ccccc23)c2c[nH]c3ccccc23)cc1O,-1.1,-2.2
CCCCc1c(C)c(C#N)c2nc3ccccc3n2c1NCCN1CCOCC1,0.72,-1.9
CCc1nn(CC(=O)N2CCc3ccccc3C2)c(=O)c2cc3occc3n12,2.4,0.64
O=C(CS(=O)(=O)c1ccccc1)c1ccc(Cl)cc1,·,-7.8
Cc1ccsc1C1C(C#N)=C(N)OC2=C1C(=O)CCC2 (configuration not stated),·,-0.62
Cc1ccc(S(=O)(=O)c2cn(Cc3ccccc3Cl)c3cc4c(cc3c2=O)OCO4)cc1,-0.24,-2.1
Cc1cccc(-c2nc3nc(C)cc(NC(C)C)n3n2)c1,0.36,-0.77
Clc1ccc(SCCCN2CCCCC2)cc1,·,1.1
CC1OC(=O)N(c2cc(Cl)cc(Cl)c2)C1=O (configuration not stated),·,-1.7
Cc1ccc(-c2nn(C)c(=O)c3ccccc23)cc1S(=O)(=O)N1CCOCC1,-0.79,-1.3
O=C1CCSc2ccc(S(=O)(=O)Nc3ccccc3F)cc2N1,-0.76,·
O=C(Nc1ccc(Br)cc1)N1CCCCCCC1,·,-0.57
Cn1nccc1N1C(=O)C2=C(SCCS2)C1=O,·,-1.2
CCc1ccc(Nc2c(-c3ccc(C)c(C)c3)c(=O)c2=O)cc1,1.2,·
CC1CCc2c(C(=O)NCc3ccccn3)csc2C1 (configuration not stated),0.25,-0.42
CSc1nnc(SCc2cc(=O)oc3cc(O)ccc23)s1,·,-0.94
CSC(=NCc1c(Cl)cccc1Oc1ccccc1)NC#N,·,-0.93
CC1CCN(S(=O)(=O)c2ccc3c(c2)NC(=O)CC(C)S3)CC1 (configuration not stated),1,·
Cc1cc(-c2csc(=S)n2Nc2ccccc2)ccc1Cl,·,-0.9
CCOc1ccccc1-c1noc(CSc2nnc(C)n2-c2cccc(C)c2)n1,2.7,-1.8
O=C(O)Cn1nnnc1SCC(=O)Nc1ccccc1F,3.4,0.2
Cc1c(C(=O)Nc2ccc(Cl)cc2)oc2ccc3c(c12)C(=O)CC(C)(C)O3,2.7,·
O=C(Cn1c(=O)c(CNc2ccccc2)cc2cc3c(cc21)OCCO3)Nc1ccccc1F,-7.4,·
Cc1cccc(C)c1-n1c(=O)c(C#N)cc2c(=O)n3cccc(C)c3nc21,0.72,-0.6
Cc1cc2oc(C(=O)NCC(c3ccco3)N3CCOCC3)cc(=O)c2cc1Cl (configuration not stated),1.2,-1.6
CC(C)CCN1C(=O)c2ccc(C(=O)Nc3c[nH]c(=O)[nH]c3=O)cc2C1=O,·,-0.77
COCCNC(=O)Nc1ccc2nc(NS(C)(=O)=O)sc2c1,0.39,·
COCCn1c(Cc2cccn2C)nnc1SCC(=O)N1CCc2ccccc21,0.4,-0.99

# (more compounds)
SMILES,TAR Tat displ,CDC25B CDK2 inh
CCCc1nn2c(=O)c(NC(=O)c3ccc(C)cc3)cnc2s1,1.8,-0.95
COC(=O)C1C(=O)C2=C(CC1C)NC(C)=C(C(=O)OC(C)C)C2c1cccc(Cl)c1 (configuration not stated),0.75,0.14
O=C(c1ccncc1)N1N=C2CCCCC2C1(O)C(F)(F)F (configuration not stated),·,0.94
Cc1[nH]nc(-c2ccc(S(=O)(=O)Nc3cccnc3)s2)c1C,1.9,·
O=S(=O)(NCCc1csc2nc(-c3ccc(F)cc3)nn12)c1ccc(F)cc1F,1.1,·
O=C(NCc1ccco1)c1ccc(Cl)c(NC2=NC3CS(=O)(=O)CC3S2)c1 (configuration not stated),3,·
CCOC(=O)c1nnn(-c2nonc2N)c1CN1CCOCC1,·,-2.5
CC(=O)Nc1ccc(S(=O)(=O)NC2=NCN(C(C)C)CN2)cc1,-0.36,-0.24
CCCNC(=O)C1CCC(Cn2c(=O)c3sccc3n(CC(=O)N3CCCCC3C)c2=O)CC1 (configuration not stated),0.98,·
CC(=O)c1c(C)nn2c3ccccc3n(CC(=O)O)c12,·,2.1
COC(=O)C1=C(C)NC2=C(C(=O)CCC2)C1c1ccccc1 (configuration not stated),1.6,·
CC(C)CCNC(=O)CN1C(=O)CSc2ncccc21,-1.1,-0.96
O=C1CCCN1c1ccc(S(=O)(=O)N2CCCc3ccccc32)cc1,0.43,·
Cc1ccc(OCc2cc(=O)n3cc(C)sc3n2)c(C)c1,-0.12,1.2
CCOC(=O)c1cnc(SC(CC)C(=O)NC2CCCCC2)nc1N (configuration not stated),2.4,·
CCn1c(N)c(C(=O)NC2CCCCC2)sc1=S,-0.35,-0.29
Cn1c(=O)c2c(nc(Sc3ccc(NC(=O)c4ccco4)cc3)n2C)n(C)c1=O,0.26,-2.9
Cn1c(=O)c2c(-c3ccc(Cl)cc3)n(-c3ccc(Cl)cc3)cc2n(C)c1=O,1.1,-0.67
Cc1ccc2nc(C)c(Cc3nnc(SCC(=O)NC(C)(C)C)n3C)c(=O)n2c1,0.63,-0.5
Cn1c(=O)c2c(SCC(=O)N3CCN(c4ccccc4)CC3)nc(-c3ccco3)nc2n(C)c1=O,0.64,-0.75

# Sorted by SMILES length (low to high): some entries from above
SMILES,TAR Tat displ,CDC25B CDK2 inh
CCCCSc1nc2ccccc2n1CC(=O)O,0.41,-0.76
CCn1c(N)c(C(=O)NC2CCCCC2)sc1=S,-0.35,-0.29
Cc1ccsc1C1CC(=O)NC2=C1C(=O)CC(C)(C)C2 (configuration not stated),-7.2,-0.73
CCOC(=O)c1cnc(SC(CC)C(=O)NC2CCCCC2)nc1N (configuration not stated),2.4,·
CCS(=O)(=O)Nc1ccc2c(c1)N(S(C)(=O)=O)CCC2,0.2,·
Cc1[nH]nc(-c2ccc(S(=O)(=O)Nc3cccnc3)s2)c1C,1.9,·
CC1CCN(S(=O)(=O)c2ccc3c(c2)NC(=O)CC(C)S3)CC1 (configuration not stated),1,·
Cc1ccc(-c2noc(C(C)NS(=O)(=O)c3ccc(Cl)cc3)n2)cc1 (configuration not stated),2.2,-0.63
Cc1cc2oc(C(=O)NCC(c3ccco3)N3CCOCC3)cc(=O)c2cc1Cl (configuration not stated),1.2,-1.6
O=C(NCc1ccco1)c1ccc(Cl)c(NC2=NC3CS(=O)(=O)CC3S2)c1 (configuration not stated),3,·
Cc1ccc2nc(C)c(Cc3nnc(SCC(=O)NC(C)(C)C)n3C)c(=O)n2c1,0.63,-0.5
Cn1c(=O)c2c(nc(Sc3ccc(NC(=O)c4ccco4)cc3)n2C)n(C)c1=O,0.26,-2.9
O=C(Cn1c(=O)c(CNc2ccccc2)cc2cc3c(cc21)OCCO3)Nc1ccccc1F,-7.4,·
COC(=O)C1C(=O)C2=C(CC1C)NC(C)=C(C(=O)OC(C)C)C2c1cccc(Cl)c1 (configuration not stated),0.75,0.14

# Next structures follow:
SMILES,TAR Tat displ,CDC25B CDK2 inh
O=C(CSc1nc2c(c(C(F)(F)F)n1)CCc1ccccc1-2)NCC1CCCO1 (configuration not stated),0.08,0.64
Cn1cc(S(=O)(=O)N2CCOCC2)cc1C(=O)N1CCc2ccccc2C1,1,·
Cc1ccc(-c2cc(N3CCc4ccccc43)nc(C)n2)cc1,-0.16,0.13
C=CCn1c(SCC(=O)O)nc2c1c(=O)n(C)c(=O)n2C,0.29,-1.6
CNc1ccc(Cl)cc1C(=O)Nc1nnc(C)s1,·,-2.4
O=C(Nc1csc(-c2cccs2)n1)Nc1ccc(F)cc1F,·,-2.1
CN(C)c1ccc(C2/C(=C(/O)c3ccccc3)C(=O)C(=O)N2CCO)cc1 (configuration not stated),-0.32,-2
CC(=O)Oc1ccc(OC(C)=O)c2cc3c(OC(C)=O)ccc(OC(C)=O)c3cc12,·,-0.36
COc1ccc(OC)c(NS(=O)(=O)c2ccc3c(c2)CC(C)N3C(=O)C2CC2)c1 (configuration not stated),0.63,·
NC(N)=NC1=NC(=O)CS1,·,-2.9
O=C(NC1CCCCC1)c1ccc2cn[nH]c2c1,-0.92,·
NC(=O)C1CCN(C(=O)c2cccn3c(=O)c4cc(Cl)ccc4nc23)CC1,·,-1.1
C=C(C)/C=C1/C=CC(=O)C(C)=C1,4.5*,·
O=C(Nc1ccc(F)cc1)c1cc2cc(Cl)ccc2[nH]1,·,2.4
Cc1ccc(/C(O)=C2/C(=O)C(=O)N(CC(C)O)C2c2cccc(O)c2)cc1 (configuration not stated),1.5,-2.2
CCOc1ccccc1-c1noc(CSc2nnc(-c3ccccc3)n2C)n1,1.1,-1.9
COC(=O)c1ccc(OC)c(CN2C(=O)N(Cc3ccc(OC)cc3)S(=O)(=O)c3ccccc32)c1,0.2,·
COCCCNC(=O)C1CCC(Cn2c(=O)c3sccc3n(C)c2=O)CC1 (configuration not stated),-1.5,·
Cc1ccc(Cl)cc1-n1ncc2c(NCCN3CCOCC3)ncnc21,0.53,·
Cn1c(=O)oc2cc(S(=O)(=O)N3CCC(N4CCN(Cc5ccccc5)C(=O)C4=O)CC3)ccc21,0.64,·
CCOC(=O)C1CCN(c2c(NCCOC)c(=O)c2=O)CC1,1.5,-0.19
CCc1nn(CC(=O)NCCN(CC)CC)c(=O)c2cc3sccc3n12,0.99,-0.83
O=S(=O)(NCc1cccnc1)c1ccc2c(c1)OCCO2,0.7,-1.2
CCn1c(N2CCC(C(=O)Nc3nc(C)cs3)CC2)cc(=O)n(C)c1=O,0.33,·
Cc1csc2sc(-c3ccn[nH]3)c(C)c12,·,-1.7
COc1ccccc1NC1=C(C(=O)c2ccccc2)N(C)S(=O)(=O)c2ccccc21,-1.9,-0.69
COCCNC(=O)c1noc(C)c1CN1CCOCC1,0.6,·
Cc1ccccc1C1N2CC3(C)CN1CC(C)(C2)C3=O (configuration not stated),·,-0.55
CCOC(=O)/C(C#N)=C/c1ccc(OCc2c(C)no[n+]2[O-])c(OC)c1,·,-1.4
Cc1ccc(C(=O)CSc2nccn(-c3ccc(F)cc3)c2=O)cc1,0.76,·
COc1cc(OC)c(NC(=O)n2ncc3cc(Cl)ccc32)cc1Cl,0.63,-2.2
COc1ccc(S(=O)(=O)N2CCN(C(=O)c3cc(C4CC4)[nH]n3)CC2)cc1OC,1.7,·
CCOC(=O)N1CCC(NC(=O)CSc2c3c(nc4ccc(Cl)cc24)CCCC3)CC1,-0.17,-2.3
O=c1[nH]cnc2onc(-c3ccccc3)c12,-0.3,-1.6
COC(=O)CN1C(=O)CSc2ccc(S(=O)(=O)N3CCN(c4ccccc4)CC3)cc21,0.23,·
CN(C)c1ccc(-c2nc3n(n2)C(c2ccc(F)cc2)C2=C(CCCC2=O)N3)cc1 (configuration not stated),1,-3.7
O=C(Nc1nnc(CSc2ccccc2)s1)Nc1ccc(Cl)cc1Cl,·,-3.4
COc1ccc(CSc2nc3ncccc3o2)cc1,-0.06,·
CCCn1c(=O)c(C)cn2nc(N)nc12,·,-0.63
Cc1c(Br)cc(C(=O)NC(C)C)c(C)c1C,·,-2
